# Bioassay records from PubChem.
# ClpP mod: qHTS Assay for Activators of ClpP. ATP-dependent Clp protease proteolytic subunit (Bacillus subtilis (strain 168)), P80244. purified B. subtilis ClpP, FRET peptide cleavage, 20 min. Potency, µM (titrated, usually from 57.5 µM), for inactives: top-dose activity change, negative = active. hit rate 1.9% among 340,000; active = well fitted falling curve with a large enough effect; inconclusive = small, poorly fitted or top-dose-only effect; inactive = no such curve, though single readings can be large or run the other way; note: potency is the fitted concentration of half-maximal effect; the source files actives as falling curves though it sought activators and does not explain the sign; nearly all actives have a fitted effect of over 65% in size; many hits overshoot -100%
# Target sequence (P80244 whole entry, looked up): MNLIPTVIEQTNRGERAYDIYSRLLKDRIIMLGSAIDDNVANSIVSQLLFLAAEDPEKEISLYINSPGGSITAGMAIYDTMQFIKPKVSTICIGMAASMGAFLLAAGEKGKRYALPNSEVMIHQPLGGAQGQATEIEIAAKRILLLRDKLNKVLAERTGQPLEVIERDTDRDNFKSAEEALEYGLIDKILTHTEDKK
#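 ClpP 10 microg/mL final, pH 8 Tris/KCl buffer with BSA, glycerol, Tween-20; compound pinned in; FRET-FV substrate; RT 20 min; Ex320/Em430; ΔFRET vs ADEP 5.8 microM, DMSO, no enzyme.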
# TRPML1 blocker: inhibitors of human TRPML1 channel | TRPML1-inducible cells, Ca2+ dye fluorescence, FDSS; stronger effect = lower value; inhibition of EC80 agonist-evoked calcium signal | activity change, negative = inhibition, % (no concentration beside the values) | hit rate 0.02% among 390,000; in the data active means activity change below about -50%; inconclusive means about -30% to -50%; inactive means above about -30%;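 note: stimulus is agonist 54-4 at its EC80 concentration; % is set by controls: 0 for no effect and ±100 for the full control effect; compound concentration not given in the record; the text of the record puts the active cut at -80%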
# Target sequence (Q9GZU1 whole entry, looked up): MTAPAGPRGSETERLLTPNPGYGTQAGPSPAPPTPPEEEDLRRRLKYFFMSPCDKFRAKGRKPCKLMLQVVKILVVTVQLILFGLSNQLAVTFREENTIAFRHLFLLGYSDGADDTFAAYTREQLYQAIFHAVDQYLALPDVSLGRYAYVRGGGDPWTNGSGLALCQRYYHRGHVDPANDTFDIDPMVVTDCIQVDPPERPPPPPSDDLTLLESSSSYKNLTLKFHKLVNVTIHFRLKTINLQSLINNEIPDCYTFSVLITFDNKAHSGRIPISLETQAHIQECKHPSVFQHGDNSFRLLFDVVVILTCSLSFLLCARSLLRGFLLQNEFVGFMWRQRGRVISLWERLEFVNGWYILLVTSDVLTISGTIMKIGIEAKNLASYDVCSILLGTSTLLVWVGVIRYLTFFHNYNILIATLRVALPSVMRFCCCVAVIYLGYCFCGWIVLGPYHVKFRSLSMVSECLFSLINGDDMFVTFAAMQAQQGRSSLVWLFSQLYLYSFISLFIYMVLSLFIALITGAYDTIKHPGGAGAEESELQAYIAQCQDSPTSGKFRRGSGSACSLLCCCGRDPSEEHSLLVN
#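 Calcium fluorescence in TRPML1-DL cells induced overnight with Tet: a 110 s read after compound pin addition, then a 110 s antagonist read after challenge with 54-4 at 4 uM final (EC80).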
# TRPML1 agonist: agonists of human TRPML1 channel. hit rate 0.12% among 410,000. activation, % (no concentration beside the values). TRPML1-expressing cells, Ca2+ dye fluorescence, FDSS; host cell line not named in the record; reference of the full effect not given here; in the data active = activation above about 50%; inconclusive = about 30% to 50%; inactive = below about 30%; note: 0% is about no effect; the text of the record puts the active cut at 80%
#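 Cells: TRPML1-DL, 1X Tet inducer, ~16 h at 37 degrees C/5% CO2. Dye: ABD Ca8 no-wash + quencher, 45-90 min RT. Read: 10 s baseline, compound add, 110 s agonist phase; 54-4 EC80 (4uM final), 110 s antagonist phase.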
# gsp ag: gsp mutant agonism; gsp mutant cells, cAMP HTRF, 30 min; control for the full effect not named in the record; Potency, µM (top dose mostly 76.9 µM), without a hit: at the highest dose activation (cAMP increase), usual class: activators; hit rate 0.13% among 340,000; AID 624287; active = well fitted activation curve with a large enough effect; inconclusive = small, poorly fitted or top-dose-only effect, or another doubt; inactive = no such curve, though single readings can be large or run the other way; cell line not stated here;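 note: phosphodiesterase inhibitor Ro 20-1724 added with compounds to block cAMP breakdown; potency is the fitted concentration of half-maximal effect; nearly all actives have a fitted effect of over 60% in size; about a fifth of the inactives were tested at one dose only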
#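 Cells stably selected in G418 were plated at 2000/well, grown 16-24 hr, then given compounds in DMSO with the PDE inhibitor […] (300 uM solution added) for 30 min at 37C; cAMP was read by HTRF.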
# Menin MLL FP FL: menin-MLL binding inhibition, fluorescein peptide; 290,000 tested, under 10 active; FP activity change, % at 61.4 µM; Fluorescence polarization, fluorescein-MLL peptide displacement from menin; inconclusive = falling polarisation curve, or a change in total fluorescence; inactive = total fluorescence flat and polarisation flat or rising; no compound was filed as active; the % refers to the polarisation; negative = inhibition;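 note: % of control where 0% means no effect; inhibitors lower the polarisation; unlabelled MLL peptide was the positive control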
# gsp antagonist: antagonists of gsp mutant (McCune-Albright syndrome); gsp-mutant cells, cAMP HTRF, 30 min; control for the full effect not named in the record; Potency, µM (series often up to 76.9 µM), without a hit: at the highest dose activity change, negative = inhibition, usual class: inhibitors; hit rate 0.4% among 340,000; active = falling curve of any shape with a large fitted effect; inconclusive = falling curve, mostly with a smaller effect; inactive = flat or rising curve; cell line not stated here;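 note: intracellular cAMP measured with PDE inhibitor Ro 20-1724 present during compound exposure; potency is the fitted concentration of half-maximal effect; % is set by controls: 0 for no effect and ±100 for the full control effect; nearly all actives have a fitted effect of over 65% in size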
#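 Cells in G418 medium, seeded 16-24 h, 37C; buffer exchange to DPBS + 1 mM CaCl2, 0.5 mM MgCl2, 0.05% BSA; cpds in DMSO + […] (300 uM stock), 30 min 37C; HTRF cAMP detection.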
# The depositor's hits bear a star; ? = inconclusive; · = not tested or not shown; & = joins results of further samples; [ ] = remark or other dose. Rows were taken by chance; 2.1% or so of the library scored in one or more.
no.	compound	ClpP mod	TRPML1 blocker	TRPML1 agonist	gsp ag	Menin MLL FP FL	gsp antagonist
1	CCOC(=O)C1(Cc2ccccc2)CCCN(C(=O)c2cn[nH]c2)C1 (configuration not stated)	-0.6%	-9	-0.1	0%	3.3	-3%
2	O=C(CNC(=O)c1cccc(F)c1)N/N=C/c1cccs1	-0.5%	-1	1.4	0%	-15	4%
3	CC(CNC(=O)c1ccc(N)cc1)NC(=O)c1ccc(N)cc1 (configuration not stated)	·	-7	-0.5	-14%[15.4 µM]	-2.1	·
4	COc1ccccc1NS(=O)(=O)c1c(C)nc2sccn2c1=O	1.5%	-1	-0.2	27%	0.2	4%
5	O=C(C1CCN(C2CCN(Cc3ccc4cc(F)ccc4n3)CC2)CC1)N1CCCC1	·	-16	-0.4	15%	2.2	6%
6	C[C@H](NC(=O)c1ccco1)C(=O)OCC(=O)N1CC(=O)Nc2ccccc21	·	6	0.1	4%	·	8%
7	O=C(CSCCO)Nc1ccc([N+](=O)[O-])cc1	·	-11	-1.0	-5%[15.4 µM]	0.0	1%
8	CCNCC(=O)Nc1c(C)cccc1C	-2.0%	-4	0.4	·	·	0%
9	S=C(NCCc1ccccc1)N1CCc2ccccc2C1	·	1	0.9	-8%[15.4 µM]	3.5	6%
10	Cc1ccc(NC(=O)CCc2nnc3ccc(NCc4ccco4)nn23)nc1	-8.7%	-3	0.4	45%	-11	8%
11	CCCCOc1cccc(C(=O)N2CCN(CCc3ccncc3)CC2)c1	-1.3%	4	1.8	·	·	·
12	Cc1ccc(C(=O)NCC(=O)OCc2cc(=O)n3ccsc3n2)cc1	-22%	0	-0.3	·	·	·
13	CCOC(=O)c1ccccc1NC(=O)COC(=O)CC(C)(C)CC1=NS(=O)(=O)c2ccccc2N1	-9.4%	-8	-0.8	·	·	·
14	O=C(CSc1ccc(-c2ccco2)nn1)c1ccccc1	-0.7%	-5	1.8	?	?	-6%
15	CCS(=O)(=O)N1CCN(C(=O)c2ccc(-c3ccccc3)cc2)CC1	-5.9%	-17	-0.7	-12%	-2.4	3%
16	Cc1c(NC(=O)C(C)N2C(=O)c3ccccc3C2=O)c(=O)n(-c2ccccc2)n1C (configuration not stated)	-1.1%	19	1.2	15%	-0.3	-16%
17	O=C(N/N=C/c1sc(N2CCOCC2)nc1-c1ccccc1)c1ccc(O)cc1	·	37	2.7	7%[15.4 µM]	8.9	?
18	COC(=O)c1ccc(CSc2nnc(C)n2N)o1	-1.1%	-2	0.3	-14%	·	1%
19	Cc1ccc(N2CC(c3nc4ccccc4n3C)CC2=O)cc1C (configuration not stated)	0.1%	-2	-0.2	-14%	-0.7	-3%
20	COc1cc2c(cc1OC)C(C)N(Cc1ccc3c(c1)OCO3)CC2 (configuration not stated)	-0.6%	9	-0.6	-38%[inhibitor]	-4.7	12%
21	Cc1cccc(-c2nc(N3CCN(c4ccc(F)cc4)CC3)c3ccccc3n2)c1	-1.4%	15	-0.5	·	·	·
22	Cc1cc(N2CCN(C)CC2)nc2ccc(NC(=O)c3ccc(C(C)(C)C)cc3)cc12	-5.6%	-3	0.3	·	·	·
23	CCn1c(SCC(=O)c2ccc(NC(C)=O)c(OC)c2)nnc1-c1ccc(NS(C)(=O)=O)cc1	?	-6	0.9	8%	0.9	4%
24	COC(=O)C1CN(C(=O)COc2cc(C)c(Cl)c(C)c2)c2ccccc2O1 (configuration not stated)	1.4%	19	3.8	-16%	-25	?
25	CCOc1ccc(S(=O)(=O)N2CCC(C(=O)Nc3ccccc3N3CCCC3)CC2)cc1	-0.9%	14	0.0	2%	·	·
26	N#CCCN(C(=O)COC(=O)c1cc(S(=O)(=O)N2CCOCC2)ccc1Cl)c1ccc(F)cc1	-4.7%	31	1.4	-46%[inhibitor]	·	-3%
27	COc1ccc(OCCCC(=O)NCc2ccco2)cc1	0.0%	13	-0.2	-38%[inhibitor]	0.2	1%
28	CCn1c(O)c(N=NC(=O)CNC(=O)c2ccco2)c2ccccc21	1.3%	-11	1.4	-39%[inhibitor]	7.9	-5%
29	O=C(Nc1nc2n(n1)C(c1ccccc1)C=C(c1ccccc1)N2)c1ccccc1 (configuration not stated)	3.7%	0	2.0	·	·	·
30	COc1ccc(S(=O)(=O)N2CCCCCC2)cc1C(=O)NCCOc1ccc(C)cc1	-3.1%	-3	-0.6	-19%	·	-9%
31	O=c1[nH]c(-c2ccccc2O)nc2c1CCCC2	-11%	2	-0.8	?	-1.3	8%
32	CCOc1ccc(CN2CCN(CC3=Cc4cccc(OC)c4OC3)CC2CCO)cc1 (configuration not stated)	-1.7%	23	1.4	-54%[inhibitor]	-4.5	-1%
33	CC(C)Oc1ccc(CCC(=O)N/N=C/c2ccc3c(c2)OCO3)cc1	·	5	1.2	-15%	-2.2	4%
34	CCCCn1c(N)c(N(CCC(C)C)C(=O)COC(=O)c2ccco2)c(=O)[nH]c1=O	-0.6%	-5	3.3	7%	2.7	-14%
35	CN(CC(=O)Nc1cccc(S(=O)(=O)N(C)C)c1)Cc1ccccc1	·	-19	0.8	26%	-6.7	1%
36	CC(=O)c1ccc(N2CCN(C(=O)c3ccc4nc[nH]c4c3)CC2)cc1	-11%	46	1.3	-71%[inhibitor]	-1.6	3%
37	CCc1ccc2[nH]cc(S(=O)(=O)c3ccc(C(C)C)cc3)c(=O)c2c1	0.8%	12	0.7	·	·	·
38	COc1cccc(-c2cc(C(=O)N3CCN(S(=O)(=O)c4ccccc4)CC3)[nH]n2)c1	-2.4%	-3	0.5	12%	-1.7	-22%
39	CCC(C(=O)NCc1ccco1)n1nc(C)c2c(C)n(-c3ccc(C)cc3)nc2c1=O (configuration not stated)	-1.8%&-1.0%	1&15	-1.6&2.3	?	-1.4	?
40	O=CN1CCN(C(C(=O)NC2CCCC2)c2ccc(Cl)cc2)CC1 (configuration not stated)	0.5%	6	-1.1	3%	5.3	-1%
41	Cc1c(OC(C)C(=O)NCC(O)c2ccccc2)ccc2c3c(c(=O)oc12)CCCC3 (configuration not stated)	4.0%	47	1.5	4%	·	-25%
42	Nc1ccn(C2OC(CCl)C(O)C2O)c(=O)n1 (configuration not stated)	-0.6%	-18	-0.1	29%	·	·
43	CC(=O)Nc1ccc(NC(=O)C(C)OC(=O)/C=C/c2cn(-c3ccccc3)nc2-c2cccnc2)cc1 (configuration not stated)	-5.1%	3	-0.2	1%	6.5	-12%
44	O=C1c2ccccc2CCc2ccccc21	-5.4%	44	3.4	-10%	·	6%
45	O=C(NCc1ccccc1F)c1ccc(CSc2nc3cccnc3n2Cc2ccccc2)cc1	-0.1%	10	-0.7	·	·	·
46	CN(C)CCSc1nc(-c2ccccc2)nc2c1CCC2	1.0%	1	-0.7	-14%	1.7	7%
47	CN(CC(=O)Nc1ccc(F)cc1)C(=O)COC(=O)/C=C/c1ccccc1[N+](=O)[O-]	-0.9%	3	-0.4	?	·	-9%
48	CCCCN(C(=O)c1ccc(C)o1)c1c(N)n(CCCC)c(=O)[nH]c1=O	0.5%	-12	-0.1	-43%	·	-2%
49	Cc1cc(C(F)(F)F)nn1CC(=O)NNC(=S)Nc1cccc(Cl)c1	0.2%	30	0.9	-14%	2.8	-13%
50	COc1ccc(C(=O)CN2C(=O)NC3(CCCCC3)C2=O)cc1OC	-5.9%	-13	-0.2	16%	-5.8	-1%

# (cont.)
no.	compound	ClpP mod	TRPML1 blocker	TRPML1 agonist	gsp ag	Menin MLL FP FL	gsp antagonist
51	CCOc1ccccc1Nc1cc(C)nc2nnnn12	·	10	-0.1	-2%[15.4 µM]	3.6	-4%
52	Cc1ccc(-n2ccc(=O)c(C(=O)Nc3ccc(S(=O)(=O)Nc4nccs4)cc3)n2)cc1	·	-7	0.0	40%	-1.5	1%
53	N=C1CCCN1CC(=O)c1ccc(Br)cc1	0.6%	-4	-0.1	-22%	-0.5	4%
54	CN(C)C(=O)CCc1nc2sc3c(c2c(=O)[nH]1)CCCC3	-3.2%	1	-0.3	-29%	2.9	-9%
55	CCc1c(C)sc(NC(=O)c2ccoc2C)c1C(N)=O	-0.1%	30	0.3	19%[15.4 µM]	·	-13%
56	CC(C)OC(=O)NC(C)(C)COC(=O)Nc1cccc(Cl)c1	-4.3%	-7	-0.4	-49%[inhibitor]	0.3	-18%
57	Fc1ccc(NC(=S)NN=C2CCCCCC2)cc1	0.5%	-2	-0.3	18%	3.1	6%
58	CC(=O)N(CCCN1CCOCC1)Cc1ccncc1	-0.5%	-7	-0.4	-28%	1.5	5%
59	CC(NS(=O)(=O)c1ccc(CCC(=O)NCc2cccnc2)cc1)c1ccccc1 (configuration not stated)	-2.6%	19	1.5	-6%	1.6	0%
60	CCOc1ccc(CCNC(=O)CS(=O)(=O)Cc2nc(-c3cccc(OC)c3)oc2C)cc1	-29%	-1	1.7	-23%	1.1	1%
61	NC(=O)c1cccnc1Nc1cccc(F)c1	·	5	0.6	-2%[15.4 µM]	-0.3	0%
62	CCC(C)(C)n1nnnc1C(c1ccccc1OC)N1CCN(C(=O)c2ccco2)CC1 (configuration not stated)	1.0%	7	-1.8	-2%[15.4 µM]	0.8	-25%
63	CCOC(=O)c1c(NC(NC(C)=O)C(Cl)(Cl)Cl)sc(C(C)=O)c1C (configuration not stated)	-0.9%	1	1.7	?	5.4	-13%
64	O=C(N/N=C/c1c[nH]c2ccccc12)C1CC1c1ccccc1 (configuration not stated)	1.7%	5	-0.5	0%[15.4 µM]	5.4	-8%
65	Nc1ccc(C2(c3ccc(N)cc3)C(=O)Nc3ccccc32)cc1	0.6%	-5	-0.3	-21%	9.3	7%
66	Cc1ccc(S(=O)(=O)N2CCCCC2)cc1NC(=O)CSc1ccc2c(c1)OCCO2	0.4%	10	2.1	15%	4.4	-8%
67	O=C(NNCc1ccc(O)cc1)c1ccccc1Cl	2.3%	13	2.1	16%	-1.9	5%
68	Cc1c(C)n(Cc2ccc(F)cc2)c2ccc(C(=O)N3CCN(c4ccccn4)CC3)cc12	-27%	-9	1.4	8%	1.1	-10%
69	COc1cccc(Nc2ncnc3ccc(Br)cc23)c1	-0.8%	-2	0.3	-2%	·	·
70	CCOC(=O)CCC(=O)NCc1ccc2[nH]c(C)cc2c1	-7.2%	-13	2.4	-1%	0.2	5%
71	CCS(=O)(=O)NC(C)C(c1cccs1)N1CCN(c2ccc(F)cc2)CC1 (configuration not stated)	1.0%	17	0.1	-64%[inhibitor]	-1.0	0%
72	CC(=O)Nc1c(Cl)cnn(-c2ccccc2)c1=O	-1.6%	-13	1.5	-1%	·	-11%
73	CCCc1nc(SCc2cccnc2)c2c(=O)n(C)c(=O)n(C)c2n1	0.3%	13	1.3	-82%[inhibitor]	0.1	-5%
